# HSV augment – enhancers of HSV replication in host cells, fold increase, host cell viability; HSV replication augmentation in cells; maximum fold increase; actives 0.005% (n = 220,000);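 active means peak rise of 1.5-fold or more in the series; tested in PC3 cells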;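 further: first round at 10 µM; read as green reporter fluorescence; hits show the peak of a series up to 25 µM; 1 = signal of infected wells without compound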
# GALR2 agonist – GALR2 receptor agonists, primary screen, cell-based; GALR2-expressing cells, agonist activation read-out; AID 803, 2007; actives 0.48% (n = 140,000); Galanin receptor type 2 (Homo sapiens), O43603; activation, %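 (tested at 5 µM)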;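 active means above mean plus 3 SD of all compounds, about 5% in these data, not always enough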;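 further: 0% = vehicle buffer wells and 100% = reference agonist at full effect; tested in CHO reporter cells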
# Insulin prom inh – inhibitors of insulin promoter-driven GFP, primary screen, imaging, TRM-6 cells (human fetal islet line), eGFP reporter, cell count. inhibition, % at 2 µM. actives 0.9% (n = 130,000). AID 1273, 2008. reporter expression induced with tamoxifen;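 active means inhibition above the mean plus 3 SD, with well images judged a real hit on visual review, cut at about 60% in these data, passing the limit was not always enough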
# PKD1 kinase inh – inhibitors of human PKD1 kinase, biochemical, fluorescence polarization; Serine/threonine-protein kinase D1 (Homo sapiens), Q15139; inhibition, %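 (about 10 µM by stock and volumes)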; PKD1 kinase fluorescence polarization assay; AID 797, 2007; actives 0.056% (n = 200,000);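 active means inhibition of 50% or more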;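 further: controls were vehicle for no effect and a reference inhibitor for full effect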
# Target sequence (Q15139 whole entry, looked up): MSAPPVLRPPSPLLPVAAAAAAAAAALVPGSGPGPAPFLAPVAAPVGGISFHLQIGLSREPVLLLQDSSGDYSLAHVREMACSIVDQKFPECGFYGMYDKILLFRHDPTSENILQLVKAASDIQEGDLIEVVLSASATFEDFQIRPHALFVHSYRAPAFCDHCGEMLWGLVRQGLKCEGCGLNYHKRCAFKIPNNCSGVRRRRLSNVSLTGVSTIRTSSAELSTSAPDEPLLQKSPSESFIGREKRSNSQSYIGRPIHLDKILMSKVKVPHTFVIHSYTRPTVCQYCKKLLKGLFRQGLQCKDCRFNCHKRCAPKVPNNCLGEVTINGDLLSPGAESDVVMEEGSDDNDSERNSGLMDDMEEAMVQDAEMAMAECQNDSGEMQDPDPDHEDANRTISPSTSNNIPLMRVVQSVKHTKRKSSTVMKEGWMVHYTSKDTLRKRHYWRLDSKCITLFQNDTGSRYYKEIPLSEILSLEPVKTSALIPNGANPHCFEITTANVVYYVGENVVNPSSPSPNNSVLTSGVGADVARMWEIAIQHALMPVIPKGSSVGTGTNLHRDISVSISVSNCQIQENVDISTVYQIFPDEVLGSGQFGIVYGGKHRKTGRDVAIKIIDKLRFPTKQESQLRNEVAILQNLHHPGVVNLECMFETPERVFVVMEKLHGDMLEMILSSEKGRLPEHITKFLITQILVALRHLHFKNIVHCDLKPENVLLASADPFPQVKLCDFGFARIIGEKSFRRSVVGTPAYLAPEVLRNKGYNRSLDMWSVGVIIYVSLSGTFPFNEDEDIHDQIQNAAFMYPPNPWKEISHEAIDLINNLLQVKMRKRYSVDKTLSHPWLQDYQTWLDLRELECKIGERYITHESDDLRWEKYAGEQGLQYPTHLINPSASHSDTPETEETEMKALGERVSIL
# RGS16-Gao – modulators of RGS16 binding to Galphao, primary screen, biochemical, human proteins, multiplexed bead flow cytometry | bead-based flow cytometry RGS16-Galphao binding, fluorescence; actives lie on both sides | binding response (% of control), % at 10 µM | actives 0.38% (n = 220,000) | Regulator of G-protein signaling 16 (Homo sapiens) + Guanine nucleotide-binding protein …;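 active means below 25% or above 175%, edge rows of some plates excepted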;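 further: Galphao activated by GDP with aluminum fluoride before binding; 100% = wells without compound and 0% = beads without RGS; some results beyond the cut were filed as inactive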
# Insulin prom inh cell count – second read-out of Insulin prom inh, no call of its own (marks repeat the call); normalized cell count, %; measured here: cell count, toxicity; reference of the scale not given here;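 cells exposed to compound for 48 h; stained nuclei by imaging scaled within each plate; lower means fewer cells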
# HSV augment primary fold – also measured in HSV augment; calls as there; fold increase; compound at 10 µM; measured here: primary screen fold increase 10 uM; tested in PC3 cells;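 GFP signal in the first replicate; 1 = infected wells without compound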
# * marks the source's active call; other numbers are inactive results; i = inactive; · = no result given. This is a random part of the collection; 1.1% or so of the library scored in one or more.
SMILES,HSV augment,HSV augment primary fold,GALR2 agonist,Insulin prom inh,Insulin prom inh cell count,PKD1 kinase inh,RGS16-Gao
Clc1nn2cnnc2c2ccccc12,i,0.89,·,·,·,3,106
CC(NC(=S)Nc1ccc(Cl)cc1)C(c1ccccc1)N1CCOCC1 (centres undefined),i,0.9,-0.6,7,128,7,101
Cc1c(C(=O)N2CCCC2)sc(NC(=O)c2cccs2)c1C#N,i,0.75,-0.8,-36,69,-7,110
O=C(CSc1nnc(-c2ccc(Cl)cc2Cl)n1C1CCCCC1)NC1CCS(=O)(=O)C1 (centres undefined),i,0.79,-3.6,-16,107,-13,93
CCOc1ccc(-n2c(O)c(/C=N/Nc3nc(C)cc(C)n3)c3ccccc3c2=O)cc1,i,0.96,·,69,61,-1,100
CCOc1ccc(NC(=O)CCC(=O)NNC(=O)c2ccco2)cc1,i,0.96,·,·,·,3,110
CCn1c(CNc2ccc(F)cc2)nnc1SCCN1CCCCC1,i,1,-1.7,17,95,-4,103
O=C(NCCCn1ccnc1)c1cc2ccccc2oc1=O,i,1,0.1,-10,76,-4,75
Cc1nc(N2C(=O)C(=O)/C(=C(/O)c3ccccc3)C2c2ccco2)sc1C (centres undefined),i,1,-3.7,20,75,-13,97
CCOC(=O)C(C)Oc1ccc(C2NC(=O)NC(C)=C2C(C)=O)cc1Br (centres undefined),i,0.82,-3.4,i,56,4,98
COC(=O)c1cnc(SCc2ccc([N+](=O)[O-])cc2)n1C,i,1.1,·,·,·,·,106
CCCc1nnc(-c2ccc(OC)cc2)o1,i,0.99,-0.4,11,75,-14,101
CCOc1ccc(C2C(C(=O)O)CCC(=O)N2C2CCCCC2)cc1 (centres undefined),i,1.2,·,-18,75,-7,99
CCOC(=O)CCn1c2nc(C)cc(C)c2c(=O)n1-c1ccccc1,i,1,-1.0,·,·,0,100
CCOC(=O)N1CCN(C(=O)CCn2nc(-c3ccccc3)ccc2=O)CC1,·,·,-3.8,47,96,-23,104
Cc1ccc(NC(=S)NC(=O)c2ccc(F)cc2)cc1S(=O)(=O)Nc1cccc(Cl)c1,i,0.75,·,·,·,-6,100
Nc1ccc(Br)c2cccnc12,i,0.79,·,·,·,-5,102
Fc1ccccc1-c1nc(N2CCCCC2)c2ccccc2n1,i,1,0.2,·,·,-7,104
O=C(Nc1ccc2c(c1)OCCO2)C1CCN(c2ncccn2)CC1,i,0.95,·,-13,80,-6,103
O=C(c1ccc(C#CC2(O)CCCCC2)cc1)N1CCN(C(c2ccccc2)c2ccccc2)CC1,i,0.94,-0.8,32,106,4,104
Cc1cc(C)cc(C(=O)Nc2ccc(N3CCCC3)cc2)c1,i,1,·,-95,127,2,97
COC(=O)C1=CN(Cc2cccs2)C=C(C(=O)OC)C1c1ccc(OC)cc1OC,i,0.94,·,·,·,-2,109
CCC1(C)Cc2ccccc2-c2[nH][nH]c(=O)c21 (centres undefined),i,1.1,·,·,·,-5,94
COc1cc2c(cc1NC(=O)c1cccc(S(=O)(=O)N(C)C)c1)oc1ccccc12,i,0.62,-0.3,-87,82,10,103
Cc1c(NC(=O)c2cc(-c3ccc(Cl)s3)nc3ccccc23)c(=O)n(-c2ccccc2)n1C,i,0.97,-2.6,·,·,-5,101
CC(=O)c1coc2ccc(OCC(=O)O)cc12,i,0.85,-3.3,-29,127,-6,109
O=C(c1cnccn1)N1CCN(C/C=C/c2ccccc2)CC1,i,0.92,-1.9,40,138,0,123
O=C(c1ccc(S(=O)(=O)N2CCOCC2)cc1)N(c1ccc(F)cc1)C1C=CS(=O)(=O)C1 (centres undefined),i,0.7,0.5,4,70,-1,98
O=C1CC(N2CCCc3ccccc32)C(=O)N1c1ccccc1 (centres undefined),i,1.3,-2.1,-42,99,-9,101
CC(=O)N1[C@H](Cc2ccccc2)C=C[C@]1(C)C(=O)NCc1ccc(C)o1,i,0.87,-1.7,-45,138,-13,103
NC(=O)c1ccsc1NC(=O)C1CC1,i,1.1,·,·,·,·,92
CN1CCc2c(n(CC(O)CN3CCN(CCO)CC3)c3ccccc23)C1=O (centres undefined),i,0.94,·,-73,85,1,101
Cc1ccc(-c2ccc(S(=O)(=O)N3CCN(C)CC3)cc2)cc1,i,1,-1.7,5,111,-2,151
O=C(NC(=S)Nc1cc(C(F)(F)F)ccc1N1CCOCC1)c1sc2ccccc2c1Cl,i,1,-0.5,-35,112,16,104
O=C(c1cc(=O)c2ccccc2o1)N1CCCc2ccccc21,i,1,-0.7,·,·,-10,83
COc1ccc(CCNC(=O)c2cnc3scc(C)n3c2=O)cc1OC,i,0.98,-1.3,·,·,7,104
Cc1ccc(/C=N/n2c(C)nc3ccccc3c2=O)s1,i,0.92,·,·,·,-4,103
CC(C)OC(=O)c1cccc(-c2ccc(C=O)o2)c1,i,1.1,-0.1,-36,106,-1,111
CCCc1cc(C(=O)Nc2sc3c(c2C#N)CCC3)no1,·,·,-0.5,·,·,6,95
Cn1c(SCCOc2ccc(Cl)cc2)nnc1-c1ccncc1,i,0.89,1.6,-29,189,-4,97

# Some of these compounds in order of the RGS16-Gao value, low to high.
smiles | HSV augment primary fold | GALR2 agonist | PKD1 kinase inh | RGS16-Gao
CCC1(C)Cc2ccccc2-c2[nH][nH]c(=O)c21 (centres undefined) | 1.1 | · | -5 | 94
Cn1c(SCCOc2ccc(Cl)cc2)nnc1-c1ccncc1 | 0.89 | 1.6 | -4 | 97
CC(=O)c1coc2ccc(OCC(=O)O)cc12 | 0.85 | -3.3 | -6 | 109

# (list continues)
SMILES,HSV augment,HSV augment primary fold,GALR2 agonist,Insulin prom inh,Insulin prom inh cell count,PKD1 kinase inh,RGS16-Gao
CC(=O)C1=C(O)CC(C)(C)CC1=NCc1nc2ccccc2[nH]1,i,1.2,·,·,·,-2,103
C=CCNCCCOc1ccc(C)cc1Br,i,0.91,-0.3,-2,85,-8,24*
COc1ccc(NC(=O)C(=O)NCc2ccncc2)c(OC)c1,i,1,1.2,55,95,4,99
COc1ccc(-c2[nH]ncc2CN2CCCCCCC2)c(OC)c1,i,0.93,·,·,·,-1,91
CCc1cccc(NC(=S)N(CCCN2CCOCC2)C(C)c2cc3cccc(OC)c3o2)c1 (centres undefined),i,0.95,·,-7,88,-2,102
CCc1ccc(C(=O)NNc2ccc(C)c(Cl)c2)cc1,i,1.4,·,·,·,·,102
COCCCNc1nc2ccccc2nc1NS(=O)(=O)c1ccc(C)cc1,i,1.2,·,·,·,·,97
COc1ccc(OC(=O)c2cnn(-c3ccccc3)c2C)cc1,i,0.92,-2.0,-10,106,-7,99
Cc1nc(-c2cccc(N)c2)cs1,i,0.79,-0.7,·,·,7,103
COc1ccc(CCNC(=O)CN2CCC(C)CC2)cc1OC,i,0.97,0.2,5,34,-2,101
COc1cc(Br)c(C(C)NC(=O)c2cccc(Br)c2)cc1OC (centres undefined),i,0.94,-0.1,·,·,-11,98
CCNc1nc(NC#N)nc(SCC(=O)OCC)n1,i,0.98,-2.2,6,128,-7,80
COc1ccc(C2C(C(=O)NCCN3CCOCC3)c3ccccc3C(=O)N2C)cc1OC (centres undefined),i,1.1,-2.7,0,57,-2,99
C=CCNc1sc(C(=O)c2ccc(Br)s2)c(N)c1C#N,i,1.1,1.0,·,·,-8,113
Cc1ccc(C2NC(c3ccc(C)cc3)C(C)C(=NO)C2C)cc1 (centres undefined),i,0.84,-0.3,29,94,3,106
COc1ccc(N2Cc3ccccc3C2=NC(=O)c2cccc([N+](=O)[O-])c2)cc1,i,1,-1.1,·,·,-4,103
CC(Sc1ccccn1)C(=O)Nc1ccccc1 (centres undefined),i,1.1,-0.3,-123,124,1,104
CCC1=NN(S(=O)(=O)c2ccc(C)cc2)C(O)(C(F)(F)F)C1 (centres undefined),i,0.97,·,-50,44,-11,105
O=C(/C=C/c1ccccc1Cl)NCCc1ccc(F)cc1,i,1.1,-0.2,-3,141,-8,83
O=C(COC(=O)/C=C/c1ccc2c(c1)OCO2)NC1CC1,i,0.85,-0.5,15,79,0,107
COc1ccc(N(CC(=O)Nc2ccccc2C(=O)O)S(=O)(=O)c2ccc(C)c([N+](=O)[O-])c2)cc1,i,0.87,·,·,·,4,101
CC(=O)c1ccc(NS(=O)(=O)c2ccc(N)cc2)cc1,i,1,·,6,91,2,69
O=c1cc(CSc2ccc(Cl)cc2)nc(-c2ccccc2)[nH]1,·,·,·,-86,214,1,99
CCn1c(SCc2nnc(-c3ccccc3)o2)nnc1-c1ccc(S(=O)(=O)N2CCCC2)cc1,i,0.99,-1.6,-33,108,5,89
FC(F)(F)c1ccc(Oc2ccc(Cl)cc2Br)nc1,i,0.94,·,-24,126,-3,102
O=C(Nc1nnc(C2CC2)s1)c1cc(S(=O)(=O)N2CCCCC2)ccc1N1CCOCC1,i,1,·,·,·,·,97
CC1CN(Cc2c(O)ccc3c(=O)c(-c4ccccc4)coc23)CC(C)O1 (centres undefined),i,0.98,·,-41,88,-1,109
O=C(Nc1ccccc1C(=O)NCc1cccnc1)c1ccc(Cl)cc1Cl,i,0.97,-1.6,0,78,2,89
CC(=O)NCCn1ccc2ccccc21,i,0.93,-2.4,-8,70,-3,96
COc1ccc(-c2nc(-c3ccccc3)c(-c3cc([N+](=O)[O-])ccc3C)[nH]2)cc1O,i,0.86,-1.5,44,150,-11,103
Cc1ccc(S(=O)(=O)n2c([N+](=O)[O-])cnc2C)cc1C,i,1.1,·,·,·,0,106
C=CCNC(=S)Nc1ccc(C)c(S(=O)(=O)N2CCCCC2)c1,i,1.1,·,-100,67,-1,108
CC1=C(C(=O)N2CCCCC2)C2(CCC(C)CC2)OC1=O (centres undefined),i,0.88,-0.4,·,·,3,101
COCC(C)NC(=O)Cc1ccc(F)cc1 (centres undefined),i,0.93,-1.4,·,·,-11,106
CN(C)CCCNC(=O)CCc1ncc(C(F)(F)F)cc1Cl,i,0.96,·,-9,99,-7,108
CCOc1ccc2nc(NC(=O)COC)sc2c1,i,0.98,-1.2,·,·,5,101
Cc1c(CN(C)C(=O)c2nn(C)cc2[N+](=O)[O-])cnn1C,i,0.95,0.2,-6,113,-2,113
Cc1ccnc(N2C(=O)c3ccccc3C2O)c1 (centres undefined),i,0.89,-0.6,·,·,-7,101
CCOC(=O)C1(CC)NC(c2ccco2)C2C(=O)N(C)C(=O)C21 (centres undefined),i,0.79,-2.4,27,145,-9,99
Cc1cc(C)c2c(-n3cccc3)nn(C)c2n1,i,0.86,-1.0,12,169,1,99

# An excerpt of these results, tab-delimited:
Structure	HSV augment	HSV augment primary fold	GALR2 agonist	Insulin prom inh	Insulin prom inh cell count	PKD1 kinase inh	RGS16-Gao
Clc1nn2cnnc2c2ccccc12	i	0.89	·	·	·	3	106
CC(NC(=S)Nc1ccc(Cl)cc1)C(c1ccccc1)N1CCOCC1 (centres undefined)	i	0.9	-0.6	7	128	7	101
Cc1c(C(=O)N2CCCC2)sc(NC(=O)c2cccs2)c1C#N	i	0.75	-0.8	-36	69	-7	110
O=C(CSc1nnc(-c2ccc(Cl)cc2Cl)n1C1CCCCC1)NC1CCS(=O)(=O)C1 (centres undefined)	i	0.79	-3.6	-16	107	-13	93
CCOc1ccc(-n2c(O)c(/C=N/Nc3nc(C)cc(C)n3)c3ccccc3c2=O)cc1	i	0.96	·	69	61	-1	100
CCOc1ccc(NC(=O)CCC(=O)NNC(=O)c2ccco2)cc1	i	0.96	·	·	·	3	110
CCn1c(CNc2ccc(F)cc2)nnc1SCCN1CCCCC1	i	1	-1.7	17	95	-4	103
O=C(NCCCn1ccnc1)c1cc2ccccc2oc1=O	i	1	0.1	-10	76	-4	75
Cc1nc(N2C(=O)C(=O)/C(=C(/O)c3ccccc3)C2c2ccco2)sc1C (centres undefined)	i	1	-3.7	20	75	-13	97
CCOC(=O)C(C)Oc1ccc(C2NC(=O)NC(C)=C2C(C)=O)cc1Br (centres undefined)	i	0.82	-3.4	i	56	4	98
COC(=O)c1cnc(SCc2ccc([N+](=O)[O-])cc2)n1C	i	1.1	·	·	·	·	106
CCCc1nnc(-c2ccc(OC)cc2)o1	i	0.99	-0.4	11	75	-14	101
CCOc1ccc(C2C(C(=O)O)CCC(=O)N2C2CCCCC2)cc1 (centres undefined)	i	1.2	·	-18	75	-7	99
CCOC(=O)CCn1c2nc(C)cc(C)c2c(=O)n1-c1ccccc1	i	1	-1.0	·	·	0	100
CCOC(=O)N1CCN(C(=O)CCn2nc(-c3ccccc3)ccc2=O)CC1	·	·	-3.8	47	96	-23	104
Cc1ccc(NC(=S)NC(=O)c2ccc(F)cc2)cc1S(=O)(=O)Nc1cccc(Cl)c1	i	0.75	·	·	·	-6	100
Nc1ccc(Br)c2cccnc12	i	0.79	·	·	·	-5	102
Fc1ccccc1-c1nc(N2CCCCC2)c2ccccc2n1	i	1	0.2	·	·	-7	104

# Screening data deposited in PubChem by several laboratories.
